Screening data deposited in PubChem by National Center for Advancing Translational Sciences (NCATS).
PINK1 modulator – PINK1 expression modulation. 410,000 compounds, 0.2% hits. Potency, µM (top dose mostly 76.6 µM), for inactives: at the top dose activation (PINK1 increase), actives largely listed as activators. PINK1 immunofluorescence, high-content cytometry, 24 h. AID 624263; active = well fitted activation curve with a large enough effect; inconclusive = small, poorly fitted or top-dose-only effect; inactive = flat fitted curve, though single readings scatter; cell line not stated here;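 further: potency means the concentration at half of the fitted maximal effect; % of control where 0% means no effect; nearly all actives have a fitted effect of over 65% in size; a mitochondrial uncoupler was the plate control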
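Measures PINK1 amount and localization on or inside mitochondria by immunofluorescence. Stable cells get compounds at 5 concentrations for 24 hours before fixation and staining; CCCP controls included.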
Six1-Eya2 blk – blocks human Six1 binding to Eya2; Q15475+O00167; AlphaScreen GST-Six1/His-Eya2 binding, biochemical; hits give low values; control for the full effect not named in the record; activity change, % (concentration not given with the values); 360,000 compounds, 0.56% hits; AID 651725; in the data active = activity change below about -65%; inconclusive = about -30% to -65%; inactive = above about -30%; further: on the % scale 0 is the no-effect control and ±100 the full control effect
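GST-Six1 + His-Eya2 (5X stock: 250/500 nM); Tris pH 8.0, 300 mM NaCl, 0.05% BSA, 0.02% Tween 20; GSH donor/Ni acceptor beads; 1 h 37 °C dark; AlphaScreen readout.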
TRPML1 agonist – agonists of human TRPML1 channel. Q9GZU1. TRPML1-expressing cells, Ca2+ dye fluorescence, FDSS; host cell line not named in the record; reference of the full effect not given here. activation, % (concentration not given with the values). 410,000 compounds, 0.12% hits; in the data active = activation above about 50%; inconclusive = about 30% to 50%; inactive = below about 30%; further: 0% is about no effect; the text of the record puts the active cut at 80%
Target sequence (Q9GZU1 whole entry, looked up): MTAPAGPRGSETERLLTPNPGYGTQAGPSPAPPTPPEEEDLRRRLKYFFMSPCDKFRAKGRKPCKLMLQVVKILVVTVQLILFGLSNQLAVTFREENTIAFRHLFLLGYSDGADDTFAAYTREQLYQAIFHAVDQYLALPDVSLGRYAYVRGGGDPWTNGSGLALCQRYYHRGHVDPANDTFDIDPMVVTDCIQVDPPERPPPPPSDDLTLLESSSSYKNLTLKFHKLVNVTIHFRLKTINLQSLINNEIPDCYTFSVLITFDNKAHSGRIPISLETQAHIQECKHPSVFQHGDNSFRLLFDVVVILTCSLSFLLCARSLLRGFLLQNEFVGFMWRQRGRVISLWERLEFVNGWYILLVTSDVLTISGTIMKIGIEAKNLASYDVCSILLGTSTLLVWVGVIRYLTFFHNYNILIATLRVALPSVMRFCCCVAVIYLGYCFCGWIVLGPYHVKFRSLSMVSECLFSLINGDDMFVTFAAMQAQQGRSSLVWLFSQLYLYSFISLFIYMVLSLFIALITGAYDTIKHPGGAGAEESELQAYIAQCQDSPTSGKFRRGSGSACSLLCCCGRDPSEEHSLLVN
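TRPML1-DL cells, Tet-induced overnight (~16 h, 37 degrees C), loaded 45-90 min at room temperature with Ca8 no-wash calcium dye plus quencher. FDSS fluorescence: 10 s baseline, compound pin-transfer, 110 s agonist read, then EC80 54-4 (4uM final) and 110 s antagonist read.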
CtBP-E1A blk – blocks the CtBP interaction with E1A; AlphaScreen GST-E1A/His-CtBP binding, 1536-well; hits give low values; control for the full effect not named in the record; activity change, % (no concentration beside the values); 340,000 compounds, 0.49% hits; AID 651724; in the data active means activity change below about -65%; inconclusive means about -30% to -65%; inactive means above about -30%; further: on the % scale 0 is the no-effect control and ±100 the full control effect
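In 5 uL wells, 23 nL compound meets equimolar GST-E1A and His-CtBP (5X stock 125 nM each) for 2 h, 37 °C. Beads (5X, 50 ug/mL) then 1 h, 37 °C, dark.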
D2 PAM – positive allosteric modulators of human D2 dopamine receptor | P14416 | DiscoveRx D2 beta-arrestin cells, luminescence, 90 min; 100% = 57 uM dopamine signal | potentiation, % (test concentration not listed) | 360,000 compounds, 0.23% hits | AID 624464; active = potentiation of 50% or more; inconclusive = 30% to 50%; inactive = 30% or less;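 further: compound concentration not given in the record; tested on top of an EC20 dose of dopamine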
Target sequence (P14416 whole entry, looked up): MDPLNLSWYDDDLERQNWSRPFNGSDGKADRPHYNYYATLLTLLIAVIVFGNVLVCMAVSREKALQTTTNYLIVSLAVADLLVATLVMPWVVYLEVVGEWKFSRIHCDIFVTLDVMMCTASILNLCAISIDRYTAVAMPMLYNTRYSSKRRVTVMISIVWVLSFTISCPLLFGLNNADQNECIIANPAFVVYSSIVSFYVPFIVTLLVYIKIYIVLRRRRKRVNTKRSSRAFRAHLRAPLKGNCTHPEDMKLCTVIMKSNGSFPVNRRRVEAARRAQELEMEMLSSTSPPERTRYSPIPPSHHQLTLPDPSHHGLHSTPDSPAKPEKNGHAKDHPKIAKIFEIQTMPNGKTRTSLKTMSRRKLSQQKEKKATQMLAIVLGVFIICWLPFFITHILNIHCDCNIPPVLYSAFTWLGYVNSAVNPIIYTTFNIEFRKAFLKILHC
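D2 cells co-treated with compound plus 50 nM dopamine (EC20) for 90 min at 37 deg C to detect potentiation. Beta-arrestin recruitment was read as enzyme-fragment luminescence after 1 h at ambient temperature. Full response was set by 57 uM dopamine.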
D2 ag – agonists of human D2 dopamine receptor (beta-arrestin) | AID 624465 | activation, % (test concentration not listed) | DiscoveRx PathHunter D2 beta-arrestin, luminescence, 90 min; 100% = 57 uM dopamine signal | P14416 | 360,000 compounds, 0.084% hits; in the data active = activation above about 40%; inconclusive = about 15% to 40%; inactive = below about 15%; further: compound concentration not given in the record; the text of the record calls up to 30% inactive
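DiscoveRx PathHunter D2 beta-arrestin cells (2,100/well) attached overnight, then compound-stimulated 90 min at 37 C in HBSS/10 mM HEPES/0.1% Tween-20 buffer; beta-galactosidase complementation read by luminescence after 1 h at ambient temperature. Dopamine 57 uM final (EC100) as control.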
Starred values were filed as active, the others as inactive; ? = inconclusive; nt = not tested or not shown; & = joins results of further samples; [ ] = another dose, or the depositor's remark.

SMILES	PINK1 modulator	Six1-Eya2 blk	TRPML1 agonist	CtBP-E1A blk	D2 PAM	D2 ag
CC1=NN(C(=O)c2ccccc2Br)C(O)(c2ccc(Cl)cc2)C1 (configuration not stated)	0.9%	2	nt	nt	-21	-4.1
CCCCn1c(SCC(=O)NC(C)(C)C)nnc1-c1ccco1	2.7%[38.3 µM]	0	0.8	3	2	-3.7
CCn1c(CNC(=O)c2cc(OC)c(OC)c(OC)c2)cc2cc(C)ccc21	5.7%	-9	-0.6	1	-5	2.0
O=S(=O)(NCc1cccnc1)c1ccc2c(c1)OCCO2	-3.0%[38.3 µM]	7	-0.3	3	-7	-1.2
Cc1ccc(Cl)c2sc(NC(=O)C3=COCCO3)nc12	16%	12	-0.2	7	-6	-1.0
CCCCOc1ccc(C(=O)NCCN2CCC(n3c(=O)[nH]c4ccccc43)CC2)cc1	1.4%	-3	-0.5	4	nt	nt
CC(OC(=O)COc1ccccc1[N+](=O)[O-])C(=O)Nc1ccc(N2CCOCC2)cc1 (configuration not stated)	0.0%	-3	-0.5	-4	-4	0.7
CCN(CC)S(=O)(=O)c1ccc(NC(=O)c2cc(C(=O)OC)cc([N+](=O)[O-])c2)cc1	11%	0	0.7	-4	5	3.4
Cc1cc(C)c2c(=O)c3c(oc2c1)C(=O)N(CCO)C3c1cccc(O)c1 (configuration not stated)	0.7%	11	0.0	-6	-3	-2.8
CC(C)CCN1C(=O)c2ccc(C(=O)N3CCCCC3)cc2C1=O	0.8%	-1	0.0	8	-10	-0.4
CCOC(=O)N1CCN(C(=O)C2CCN(S(=O)(=O)c3c(C)cc(C)cc3C)CC2)CC1	-0.7%	1	0.8	-7	1	0.6
CCc1nc(N2CCOCC2)c(C#N)c2c1CCCC2	0.0%	6	-0.6	7	-11	0.8
CCCn1nc2cc(C(=O)NCc3ccccc3OC)ccc2c1OCC	-1.3%	4	0.7	-4	-3	-6.1
CCOC(=O)C1(Cc2cccc(OC)c2)CCN(C(C)COC)CC1 (configuration not stated)	0.7%	30	-0.1	3	-6	-3.3
COc1ccccc1N1CC(C(=O)OC(C)C(=O)N2CCCc3ccccc32)CC1=O (configuration not stated)	-0.8%	2	-1.2	3	?	-2.7
CC(C)c1nnc(NC(=O)COc2ccc3ccccc3c2)s1	-2.0%	2	-0.1	-2	3	-0.7
CC1(C)C2CCC1(CS(=O)(=O)N1CCCc3ccccc31)C(=O)C2 (configuration not stated)	-0.7%	3	-0.1	11	-10	-1.7
CS(=O)(=O)c1ccccc1-c1nnc(NC(=O)Cc2ccccc2)o1	-0.9%	?	0.3	-8	-11	?
CC1CCCN(C(=O)c2ccc3nc[nH]c3c2)C1 (configuration not stated)	-1.3%	2	0.1	1	6	-4.6
O=C(O)c1cc(-c2ccccc2)on1	nt	5	0.8	4	1	-2.4
NC(=S)NN=C1CCC(C2CCCCC2)CC1 (configuration not stated)	0.8%	-8	1.4	-14	-10	-4.2
Cc1ccc(-n2nc(C(=O)O)cc2-c2ccccc2)cc1	-1.9%[38.3 µM]	-1	0.4	-6	2	-2.8
COc1ccc(Cn2c(=O)[nH]c3cc(C(=O)N4CCN(c5ccc(OC)cc5)CC4)ccc3c2=O)cc1	15%	16	-1.2	16	-6	-2.4
Cc1cccc(-n2ncc3c(N4CC(C)CC(C)C4)ncnc32)c1 (configuration not stated)	9.2%	15	0.3	8	-5	-3.1
COc1cc(NC(=O)COc2ccc(F)cc2)nc(OC)n1	nt	1	-0.4	5	-12	1.8

Some of these compounds in order of heavy-atom count, falling.
SMILES	PINK1 modulator	Six1-Eya2 blk	TRPML1 agonist	CtBP-E1A blk	D2 PAM	D2 ag
COc1ccc(Cn2c(=O)[nH]c3cc(C(=O)N4CCN(c5ccc(OC)cc5)CC4)ccc3c2=O)cc1	15%	16	-1.2	16	-6	-2.4
CCOC(=O)N1CCN(C(=O)C2CCN(S(=O)(=O)c3c(C)cc(C)cc3C)CC2)CC1	-0.7%	1	0.8	-7	1	0.6
CCOC(=O)C1(Cc2cccc(OC)c2)CCN(C(C)COC)CC1 (configuration not stated)	0.7%	30	-0.1	3	-6	-3.3
Cc1cccc(-n2ncc3c(N4CC(C)CC(C)C4)ncnc32)c1 (configuration not stated)	9.2%	15	0.3	8	-5	-3.1
COc1cc(NC(=O)COc2ccc(F)cc2)nc(OC)n1	nt	1	-0.4	5	-12	1.8
NC(=S)NN=C1CCC(C2CCCCC2)CC1 (configuration not stated)	0.8%	-8	1.4	-14	-10	-4.2

(cont.)
SMILES	PINK1 modulator	Six1-Eya2 blk	TRPML1 agonist	CtBP-E1A blk	D2 PAM	D2 ag
O=C(CSc1nc2nc(-c3cccs3)cc(C(F)(F)F)c2c(=O)[nH]1)C(F)(F)F	-0.7%	-4	nt	-1	-21	-9.2
Cc1cc(C)c2c(N)c(S(=O)(=O)Cc3ccccc3)sc2n1	0.4%	0	0.3	-1	-2	-4.3
Oc1ccc(-c2[nH]ncc2-c2ccc(Cl)cc2)c(O)c1	-1.3%	-1	0.2	-3	13	2.3
COCCNC(=S)NN=C1CCCCCC1	0.2%	3	1.3	0	-8	-19
COC(=O)[C@]12CCCCC=C1N(Cc1ccccc1)C(=O)[C@H](CC(=O)NCC13CC4CC(CC(C4)C1)C3)C2	20%	-12	0.4	-7	nt	nt
COc1ccc(CN(C)C(=O)CCN2C(=O)c3ccccc3C2=O)c(OC)c1OC	0.1%	-1	0.5	4	-2	-2.8
Cc1cccc(Cn2c(=O)n(CCCC(=O)NCc3ccco3)c(=O)c3ccccc32)c1	?	-5	2.0	-17	1	-3.3
NC(=O)[C@@H]1CCNc2c(I)cc([N+](=O)[O-])cc2C(=O)N[C@@H](CCC(=O)O)C(=O)N[C@@H](CO)C(=O)N1	-0.5%	4	0.0	-22	-2	-1.2
CC(C)c1ccc(NC(=O)NC2CCCCC2)cc1	6.2%[38.3 µM]	1	1.0	10	-10	-0.6
O=C1CC(c2ccc(Cl)cc2)CC(O)=C1C=NCc1ccc(Cl)c(Cl)c1 (configuration not stated)	5.2%	10	1.1	2	-11	1.0
CCSc1ccc(C(=O)NCC(=O)O)cc1	-0.2%	18	1.3	-8	1	2.1
COc1cc(NC(=O)Cc2cccs2)c(C(=O)O)cc1OC	-0.8%	-1	-0.2	0	8	-0.3
Cc1nc2ccccn2c1C(=O)N/N=C/c1cc(C)n(-c2ccc(Cl)cc2)c1C	1.5%[38.3 µM]	-18	0.9	-23	4	-0.5
COc1cc(-c2noc(C)c2-c2ccc(N(C)C)nc2)cc(OC)c1OC	5.6%	-10	19&20	nt	8	-3.2
Cc1ccc(C(=O)N/C(=C\c2ccco2)C(=O)N2CCOCC2)cc1C	-1.4%	-1	-0.3	1	-24	-1.9
CCC(=O)Nc1nnc(Sc2ccc(N(C)C)cc2)s1	17%	-5	0.1	10	-5	-2.6
NC(=S)Nc1cc2ccccc2c2ccccc12	-1.8%	-4	-1.2	-1	-3	-2.7
O=C1C2ON(c3ccccc3)C(c3cccnc3)C2C(=O)N1c1ccccc1 (configuration not stated)	-0.8%	5	0.6	5	-4	-1.4
N#C/C(=C(/O)c1cc2ccccc2o1)c1nc2ccccc2s1	?	-1	1.8	5	-4	0.2
CCC(=O)Nc1ccc(C(=O)NNC(=O)c2cc(OC)c(OC)c(OC)c2)cc1	0.1%	8	0.4	4	-9	-1.0
CCOC(=O)Cn1c(=O)c2c(nc(N3CCOCC3)n2C)n(C)c1=O	4.4%[38.3 µM]	5	1.5	-9	-3	0.4
CC(C)N(Cc1cnn(C)c1)Cc1nc(-c2ccc(Cl)cc2)no1	0.7%	1	2.0	0	-1	3.6
CC(=O)c1ccccc1NC(=O)Cn1c(=O)cnc2ccccc21	-0.9%	16	0.3	29	4	0.6
Cc1ccc2[nH]c(-c3cccc(N)c3)cc2c1	4.8%	2	-0.1	-5	-17	0.1
Cn1c(SCc2ccc(Cl)cc2)nnc1C1CC1	0.1%	2	0.8	8	1	3.5

(more compounds)
SMILES	PINK1 modulator	Six1-Eya2 blk	TRPML1 agonist	CtBP-E1A blk	D2 PAM	D2 ag
O=C(CCCCCn1c(=S)[nH]c2cc3c(cc2c1=O)OCO3)N1CCN(C2CCCCC2)CC1	2.9%	-4	1.8	-1	-13	5.4
Cc1ccc2cc(CN(CC3CCCO3)C(=O)NC3CCCCC3)c(=O)[nH]c2c1C (configuration not stated)	-0.9%[38.3 µM]	2	-0.7	12	-3	-4.5
COc1ccc(NC(=O)c2ccc(NC(=O)c3ccco3)cc2)c(OC)c1	3.9%	-3	-0.4	-1	12	6.5
Cc1cc(C(c2ccc(O)cc2)c2cc(C)c(O)cc2C)c(C)cc1O	-1.9%	0	23	-11	2	2.3
COc1cccc(-n2nc3c(=O)n(Cc4ccccc4Cl)nc(C)c3c2C)c1	11%	-2	-1.0	7	1	-4.6
Cc1c(NC=C(C#N)C#N)c(=O)n(-c2ccccc2)n1C	3.2%	-1	-0.2	14	-3	-2.4
O=C(Nc1ccc(F)c(Cl)c1)c1cc(-c2ccco2)on1	1.0%	3	-0.2	-3	-9	1.9
CC1CCCN(S(=O)(=O)c2ccc(C(=O)NC(C)c3ccccc3)cc2)C1 (configuration not stated)	-5.2%	5	0.5	8	-8	-3.1
c1ccc2oc(-c3[nH]ncc3CN(Cc3ccncc3)CC3CCCO3)cc2c1 (configuration not stated)	0.0%	3	0.9	nt	-9	-6.2
CC(NS(=O)(=O)c1ccc(F)cc1)C(=O)NCc1ccncc1 (configuration not stated)	-1.2%	4	-0.2	-2	-40	-4.4
O=c1[nH]c(C2CCN(S(=O)(=O)Cc3ccccc3)CC2)nc2c1nnn2Cc1ccccc1	-0.2%	-7	0.3	-4	1	-2.1
COc1ccc(C2(C(=O)N3CCOCC3)CCOCC2)cc1OC	1.5%	12	0.1	1	-6	0.9
Cc1cccc(NC(=O)C2CCN(S(=O)(=O)c3cccs3)CC2)n1	1.6%[38.3 µM]	6	0.3	-3	-6	0.4
O=C(COc1ccc(S(=O)(=O)N2CCOCC2)cc1)NCc1ccco1	0.5%	-2	0.3	-4	-3	-3.4
Cc1ccc(C(=O)N/N=C/c2cccnc2)cc1Cl	-2.0%	2	-0.6	-10	-35	-1.1
COC(=O)CSc1nnc(CNc2nc(-c3ccccc3)cs2)n1C	0.0%	?	0.1	-27	-2	-1.8
O/N=C/c1ccc2ccccc2c1	-1.4%	4	-0.4	3	-5	-0.1
COc1ccc(/C=C2\SC(N3CCCCC3)=NC2=O)cc1OC	2.4%	8	1.4	-4	-8	-3.5
CCSc1ccc(/C(N)=N/OC(=O)c2cccs2)cn1	2.9%	15	0.1	10	?	?
Cc1ccc2cc(/C=C/C(=O)c3ccco3)c(Cl)nc2c1	3.8%	5	-0.3	9	-1	-0.2
N/C(=N\NC(=O)c1cccs1)c1cc2cc(Cl)ccc2oc1=O	1.9%	?	0.4	?	-10	-3.8
Cc1nn(CC(=O)OCCOc2ccc(Br)cc2)c(C)c1[N+](=O)[O-]	0.7%	6	5.4	-4	-7	-1.7
Oc1ccc(N=Nc2ccc3c(c2)OCCO3)c2ncccc12	13%	-76*	3.5	nt	-15	-14
Cc1cnc(C(=O)Nc2cc(S(=O)(=O)N3CCOCC3)ccc2N2CCN(C)CC2)cn1	-1.9%	10	0.6	4	-12	-0.7
